KCNQ2 enhance – enhances the rat KCNQ2 potassium channel. hit rate 0.54% among 310,000. AID 2239. B-score at 10 µM. CHO-K1 KCNQ2, FluxOR thallium flux fluorescence; stronger effect = higher value. O88943;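 active = fluorescence ratio B-score at least 3 SD of library B-scores, with initial fluorescence B-score within 3 SD, cut at about 5.3 in these data; same plate scores as AID 2156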;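 note: B-score of peak minus minimum over baseline fluorescence ratio after K+ and Tl+ stimulus; positive B-score means potentiation of KCNQ2 with more thallium influx and brighter signal; only the inactives scoring about 0 or higher are listed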
Target sequence (O88943 whole entry, looked up): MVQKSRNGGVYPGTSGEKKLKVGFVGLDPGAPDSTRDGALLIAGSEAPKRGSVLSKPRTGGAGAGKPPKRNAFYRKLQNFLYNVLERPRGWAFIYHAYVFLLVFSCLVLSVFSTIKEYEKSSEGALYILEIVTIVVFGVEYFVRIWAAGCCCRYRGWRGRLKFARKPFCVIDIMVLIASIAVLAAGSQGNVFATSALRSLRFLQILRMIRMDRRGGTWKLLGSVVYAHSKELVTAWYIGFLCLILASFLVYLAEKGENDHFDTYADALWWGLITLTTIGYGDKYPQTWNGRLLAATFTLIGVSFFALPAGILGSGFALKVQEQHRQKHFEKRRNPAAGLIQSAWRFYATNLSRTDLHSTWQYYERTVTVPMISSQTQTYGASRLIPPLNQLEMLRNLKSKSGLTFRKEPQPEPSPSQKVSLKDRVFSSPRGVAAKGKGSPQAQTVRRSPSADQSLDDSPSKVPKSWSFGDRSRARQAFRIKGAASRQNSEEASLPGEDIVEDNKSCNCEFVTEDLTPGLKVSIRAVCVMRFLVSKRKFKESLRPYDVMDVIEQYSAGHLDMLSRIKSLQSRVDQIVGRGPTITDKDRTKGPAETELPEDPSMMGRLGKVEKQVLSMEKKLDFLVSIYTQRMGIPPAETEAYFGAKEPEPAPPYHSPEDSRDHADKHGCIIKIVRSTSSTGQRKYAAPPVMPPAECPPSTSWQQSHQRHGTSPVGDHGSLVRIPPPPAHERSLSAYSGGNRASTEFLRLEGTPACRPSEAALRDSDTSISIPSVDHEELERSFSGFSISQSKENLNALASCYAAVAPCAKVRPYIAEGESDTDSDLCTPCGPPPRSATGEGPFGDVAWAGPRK
KCNQ2 enhance baseline – also measured in KCNQ2 enhance; calls as there; B-score; compound at 10 µM; measured here: initial fluorescence intensity artifact check;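 brightness before thallium and not channel activity; 0 = typical well and far values either way flag optical interference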
An asterisk follows results filed as active.

KCNQ2 enhance	KCNQ2 enhance baseline	Compound
0.37	0.32	C=CCN(C(=O)CNC(=O)c1ccco1)C(C(=O)NC1CCCCC1)c1ccccc1F (stereo not given)
1.3	0.01	O=C(NC1CCCC1)C(c1ccncc1)N(C(=O)Cc1cccs1)c1ccccc1 (stereo not given)
0.13	0.55	CCn1cc(C(=O)OCC(=O)c2cc(C)n(-c3ccc(OC(F)F)cc3)c2C)c(=O)c2ccc(C)nc21
0.1	-1.8	O=C(COC(=O)C1COc2ccccc2O1)NC(=O)Nc1ccc2c(c1)OCCO2 (stereo not given)
0.39	0.21	CCOC(=O)c1cc(NC(=O)c2ccco2)ccc1N1CCOCC1
0.01	0.91	COCCN(C(=O)C(=O)NC1CCCC1)C(C(=O)NC1CCCC1)c1ccccc1F (stereo not given)
0.67	-0.66	COc1ccc2cc(C(=O)N(C)Cc3ccccc3)[nH]c2c1
0.03	-1.5	O=C1CCCN1CCC1CCN(C2CC(=O)N(c3ccc(F)cc3)C2=O)CC1 (stereo not given)
0.09	-0.01	CN1CCN(S(=O)(=O)c2cccc(C(=O)NCCC3=CCCCC3)c2)CC1
2.7	0.47	COCc1cc(C)nc(N2CCN(Cc3ccccc3)CC2)c1C#N
2.3	-1	COC(=O)c1cnn(-c2ccccc2)c1/C=N/NC(=S)Nc1ccc(Cl)cc1
0.3	0.01	Cc1nc(N2CCOCC2)sc1C=O
0.66	0.56	O=C(Nc1ccc2c(c1)C(=O)OC2)c1ccccc1Cl
1.9	0.21	O=C(NN=C1CCN(Cc2ccccc2)CC1)c1ccccc1
1.5	0.1	CS(=O)(=O)c1ccccc1-c1nnc(-c2ccc(Cl)cc2)o1
0.37	1.2	CCN(CC)CCN(C)Cc1ccc(Br)cc1
0.17	2.4	COc1cccc(C(=O)OCCCOC(=O)c2cccc(OC)c2OC)c1OC
0.88	-3.2	CCOc1ccccc1NC(=O)CSc1nnnn1-c1ccccc1
0.23	-1.8	Cc1ccn2c(=O)nc(SCC(=O)c3ccc(Cl)cc3)nc2c1
0.98	-1.9	COc1ccc(CNC(=O)Cn2ccc3cc(S(=O)(=O)N4CCCC4)ccc32)cc1OC
1.1	-1.8	Cn1c(CC(=O)Nc2ccc(Cl)cc2)nnc1SCC(=O)N1CCOCC1
0.28	-1.5	COc1ccc(CC(=O)Nc2c3c(nn2C(C)(C)C)CS(=O)(=O)C3)cc1
1.2	0.57	COCCCNC(=O)Cn1cc(C(C)=O)c2ccccc21
0.41	-0.33	O=C(CN(c1ccc(F)cc1)S(=O)(=O)c1ccc2c(c1)OCCO2)NCc1ccncc1
0.12	-2.9	O=C(NCC1CCCCC1)c1cccc(-c2ccc(O)cc2)c1
1.7	0.02	CCC(C)NC(=O)N[C@@H](CCSC)C(=O)O (stereo not given in full)
0.43	-3.7	COc1ccccc1-n1cn[nH]c1=S
0.11	-0.31	CN1CCC(N(C)C(=S)Nc2ccc(SC(F)F)cc2)CC1
1.2	1.3	Cc1ccc(/C=C2\SC(=S)N(CC(=O)Nc3ncc(Cc4ccccc4Cl)s3)C2=O)cc1
0.15	-0.09	COc1ccc(/C(O)=C2/C(=O)C(=O)N(c3ncccn3)C2c2ccc(OC)cc2)cc1 (stereo not given)
0.26	-0.06	CN1CCC(=NNC(=O)C(=O)Nc2ccccc2F)CC1
2.7	0.42	Cc1nc2sccn2c(=O)c1S(=O)(=O)Nc1ccc(N2CCN(S(C)(=O)=O)CC2)cc1
0.02	0.46	Cc1cc(=O)oc2cc(OC(=O)c3nn(C(C)C)c(=O)c4ccccc34)ccc12
0.34	0.19	COc1ccc(-c2nnc3sc(C4CCCCC4)nn23)cc1OC
2.1	0.71	NC(=O)c1ccc(NC(=O)CN2CCN(Cc3ccccc3)CC2)cc1
0.87	-0.97	COCCn1c(SCC(=O)OC(C)C)nnc1-c1ccccc1
0.06	0.03	O=C(Nc1ccc2oc(-c3ccncc3)nc2c1)c1ccccc1F
0.01	-0.06	c1ccc(-c2ccnc3ncnn23)nc1
0.21	1.1	COc1ccc(C(=O)CN2CCN(c3ccc(F)cc3)CC2)cc1OC
0.44	0	c1ccc2oc(-c3csc(NCC4CCCO4)n3)cc2c1 (stereo not given)
0.59	1.7	CN(C)S(=O)(=O)c1ccc2c(c1)c(=O)c(C(=O)NCCCN1CCCCCC1)cn2C
2.6	-1.4	Cc1ccc(C)c(NC(=O)CSc2nnc(-c3n[nH]c4ccccc34)o2)c1
0.02	-0.94	CC(C)(CC(=O)O)CC(=O)N1CCN(c2cc(C(F)(F)F)nc3ccccc23)CC1
0.13	-1.1	Cn1c2ccc(F)cc2c2nnc(NN)nc21
1.8	1.6	CC1CN(C2CCCCC2)c2nc3c(c(=O)[nH]c(=O)n3C)n2C1 (stereo not given)
0.5	-0.08	Cc1ccc(OCCNC(=O)c2ccccc2F)cc1
1.2	-0.49	Cc1ccc(/C=N/NC(=O)CSc2nnc(-c3ccc(Cl)cc3)n2-c2ccc(Cl)cc2)o1
0.49	0.47	CCc1nnc(NC(=O)c2cccc(S(=O)(=O)N3CC(c4ccccc4)CC3=O)c2)s1 (stereo not given)
2.3	-0.03	CC(C)COC(=O)n1c(SCC(N)=O)nc2ccccc21
1.5	0	Cc1occc1-c1nnc(SCC(=O)Nc2nc(C(C)(C)C)cs2)o1
0.05	0.45	Cc1cc(C#N)c(SCC(N)=O)nc1-c1ccc(F)cc1
0.01	1.3	Cc1ccccc1CSCCNC(=O)c1ccccc1
2.3	1.4	COc1ccc(-c2c(C)nn3c(N4CCC(C(=O)N5CCCCC5)CC4)cc(C)nc23)cc1OC
0.81	-0.74	O=[N+]([O-])c1ccccc1OCCCN1CCOCC1
0.64	0.04	CCOc1cc(/C=N/Nc2nncc(-c3ccccc3)n2)ccc1O
0.03	0.08	Cc1csc(NC(=O)CSc2nnc(-c3ccccc3)o2)n1
1.2	0	Cc1nc2ncnn2c(C)c1CCC(=O)N1CCN(Cc2ccccc2)CC1
1.6	-0.6	Cc1ccc(CS(=O)Cc2ccc(C(=O)NCc3ccccc3Cl)o2)cc1 (stereo not given)
0.9	-1.3	CC(C)c1nnc(SCC(=O)N2CCOCC2)n1C
0.69	0.31	CCN(CC)CCn1c(NC(=O)c2ccccc2O)nc2ccccc21

Reformatted as labelled records: part of the list above.
mol: CC(C)(CC(=O)O)CC(=O)N1CCN(c2cc(C(F)(F)F)nc3ccccc23)CC1
  KCNQ2 enhance: 0.02 | KCNQ2 enhance baseline: -0.94

mol: Cn1c2ccc(F)cc2c2nnc(NN)nc21
  KCNQ2 enhance: 0.13 | KCNQ2 enhance baseline: -1.1

mol: CCOc1cc(/C=N/Nc2nncc(-c3ccccc3)n2)ccc1O
  KCNQ2 enhance: 0.64 | KCNQ2 enhance baseline: 0.04

mol: Cc1ccccc1CSCCNC(=O)c1ccccc1
  KCNQ2 enhance: 0.01 | KCNQ2 enhance baseline: 1.3

Going on with the list:
KCNQ2 enhance	KCNQ2 enhance baseline	Compound
1.4	0.16	CCCN1CN(Cc2ccco2)c2nc3ccccc3n2C1
3	-1.4	O=C(CSc1nnnn1-c1cccnc1)Nc1cccc(Cl)c1
1.4	-2	COc1ccc(CCC(=O)NCCS(=O)(=O)N2CCN(c3ccc(F)cc3)CC2)cc1
1.2	-0.59	CC1CC(=O)c2cnc(Nc3cccc(C(F)(F)F)c3)nc2C1 (stereo not given)
1	-0.84	O=C1CCCC2=C1C(c1ccc3c(c1)OCO3)c1c([nH]n(-c3ccccc3)c1=O)N2 (stereo not given)
0.03	-1.6	COc1cc(/C=N/NC(=O)c2ccc(COc3cc(C)ccc3C(C)C)cc2)cc(OC)c1O
1	-0.74	O=C(NC1CCCCC1)c1ccc(Cn2cc(Cl)cn2)cc1
0.11	0.78	Cc1ccc(NC(=O)CN2CCN(Cc3ccccc3)CC2)cc1F
2.4	-0.59	Cc1cc(C)c(C)c(OCCCCN2CCCCC2)c1
0.27	-0.02	O=c1ccnc(SCCC(F)=C(F)F)[nH]1
1	0.68	O=C(Nc1cccc(Cl)c1)Nc1nnc(-c2ccncc2)s1
1.4	-0.01	Cc1ccc(NC(=O)c2cc(C(=O)Nc3ccc(C)cc3)n(C)n2)cc1
0.57	1.2	Fc1cc2nc(-c3ccncc3)[nH]c2cc1F
1.2	-0.01	Cc1cnc(NC(=O)c2c(Cl)cnn2C)s1
0.07	0.02	Cn1c(CNC(=O)Nc2ccccc2)nnc1SCc1ccccc1
0.25	0.03	COC(=O)c1ccc(-n2nnnc2SCC(=O)NCc2cccc(C(=O)O)c2)cc1
0.11	0.49	CCCCC(=O)Nc1ccc2c(c1)nc(CN1CCN(C(=O)OCC)CC1)n2C
0.86	1.6	CCc1cc(=O)oc2cc(C)c3c(C)coc3c12
1	-0.14	COc1ccc(CNC(=O)C/C(C)=N/NC(=O)Cc2ccc(OC)cc2)cc1
2.1	0.01	Cn1c(CNC(=O)CCNC(=O)c2cccc(F)c2)cc(=O)n(C)c1=O
1	-0.51	Cn1c(CSCc2ccc(F)cc2)nnc1SCC(=O)Nc1nccs1
0.01	0.05	Cc1csc2nc(CNC(=O)C3CC=CCC3C(=O)O)cn12 (stereo not given)
0.01	0.05	Cc1ccc(S(=O)(=O)N2CC(=NO)C2)cc1
1.8	1.3	COc1ccc(C(=O)Nc2cccc(OC)c2)cc1
0.96	-0.07	Cc1cccc(C)c1NC(=O)c1cc(S(=O)(=O)N2CCc3ccccc32)cn1C
0.23	-0.35	CCOc1ccc(-n2c(N)c(C(=O)NCc3cccnc3)sc2=S)cc1
1.4	-0.94	NC(=O)CCS(=O)(=O)c1ccc(Cl)cc1
13*	-1.3*	CC1=NN(C(N)=S)C(=O)C1N=Nc1ccc(Cl)cc1Cl (stereo not given)
1.1	-3.2	Cc1ccc(C(=O)C(C)Oc2cccc(NC(=O)c3ccco3)c2)cc1 (stereo not given)
0.22	1.1	C[C@@H]1ON(C2CCCCC2)[C@H]2c3nc4ccccc4n3C[C@@H]12
0.25	-0.58	O=C(CS(=O)(=O)c1ccccc1)N1CCCCC1
1.3	0.12	COc1ccc(N2C(S)=C(C#N)C(=O)NC2c2ccco2)cc1 (stereo not given)
0.15	-0.32	O=C(O)CCCCc1nc2ccccc2s1
0.87	-0.84	O=C(O)c1ccc(/C=C2\SC(=Nc3ccccc3)N(c3ccccc3)C2=O)cc1
0.03	-0.87	COc1ccc(S(=O)(=O)N2CCC(n3cnc4ccccc43)CC2)cc1
0.18	-0.86	O=C1COc2ccc(C(=O)COC(=O)CNC(=O)c3ccco3)cc2N1
0.63	0.31	CCOC(=O)c1ccc(NC(=O)Cn2cnc(S(=O)(=O)N3CCCC3)c2)cc1
2.3	0.63	COC(=O)/C=c1\sc2ncnn2c1=O
1	-1.4	C/C(=N\Nc1ccccn1)c1ccc2c(c1)OCO2
1.2	0.57	COc1cccc(NC(=O)Nc2nnc(Cc3ccc(F)cc3)s2)c1
0.17	-0.65	COc1ccccc1NS(=O)(=O)c1ccc(O)c(C(=O)OCC(=O)c2ccc(Cl)cc2Cl)c1
1.9	0.36	Cn1nc(C(=O)Nc2nc(-c3ccc(F)cc3)cs2)ccc1=O
0.5	-0.36	COC(=O)c1ccccc1NC(=O)c1cc[n+]([O-])cc1
0.01	-1.5	CC(C)C(=O)N1CCN(c2c(Cl)cccc2[N+](=O)[O-])CC1
1.8	0.27	CC(c1ccco1)N(C(=O)c1cccc(S(=O)(=O)N(C)C)c1)c1ccccn1 (stereo not given)
0.28	-1.4	CCn1c(SCC(=O)c2ccc(OC)cc2)nnc1C(C)NC(=O)c1ccc(OC)cc1 (stereo not given)
1.1	-1.7	CN(Cc1ccccc1)C(=O)Cc1ccccc1
0.83	-1.1	CC(=O)NN1CCc2cc3ccc(C)cc3nc21
0.8	-0.06	COc1ccc(-c2cc(N3C(=O)Nc4ccccc4N3O)n[nH]2)cc1OC
0.02	-0.18	COc1ccc(C(=O)Nc2ccc(-c3nnn(CC(=O)NCc4ccco4)n3)cc2)cc1
0.83	1	Cc1ccc(NC(=O)CSc2nnc(-c3cccnc3)n2CCN2CCCCC2)cc1
0.01	-1.6	COc1ccc(NC(=O)CN(C)C(=O)CCC2CCCC2)cc1
0.03	-2.6	CCOC(=O)c1sc(NC(=O)c2ccc(S(=O)(=O)N(C)C)cc2)nc1C
3.6	1.2	CC(=O)c1ccc(NC(=O)c2ccc3c(=O)n4c(nc3c2)CCCCC4)cc1
2.5	0.38	COC(CN1CCc2c(C)nc3c(C#N)cnn3c21)OC
1.7	2.3	Cc1ccccc1NC(=O)COC(=O)CCSc1ccccc1
0.89	-0.44	COc1cc2c(C#N)c(N3CCN(c4ccccc4OC)CC3)nc(N)c2c(N)n1
0.7	-1.4	O=C1CC(N2CCc3ccccc32)C(=O)N1c1ccccc1 (stereo not given)
0.07	1.2	CCOC(=O)C(C(=O)NCc1ccc(C)cc1)c1ncc(C(F)(F)F)cc1Cl (stereo not given)

7 compounds from above, arranged by count of non-hydrogen atoms, falling:
KCNQ2 enhance	KCNQ2 enhance baseline	Compound
0.02	-0.18	COc1ccc(C(=O)Nc2ccc(-c3nnn(CC(=O)NCc4ccco4)n3)cc2)cc1
0.83	1	Cc1ccc(NC(=O)CSc2nnc(-c3cccnc3)n2CCN2CCCCC2)cc1
3.6	1.2	CC(=O)c1ccc(NC(=O)c2ccc3c(=O)n4c(nc3c2)CCCCC4)cc1
0.8	-0.06	COc1ccc(-c2cc(N3C(=O)Nc4ccccc4N3O)n[nH]2)cc1OC
0.03	-2.6	CCOC(=O)c1sc(NC(=O)c2ccc(S(=O)(=O)N(C)C)cc2)nc1C
1.7	2.3	Cc1ccccc1NC(=O)COC(=O)CCSc1ccccc1
1.1	-1.7	CN(Cc1ccccc1)C(=O)Cc1ccccc1

High-throughput results deposited in PubChem BioAssay by Johns Hopkins Ion Channel Center.

Not all compounds are listed (hit frequency here may not be typical).
